Screening data (PubChem BioAssay)
NPYLR7 ag: mosquito NPYLR7 agonism | 270,000 compounds, 0.15% hits | activation, % at 10 µM | AID 1259423 | HEK293T NPYLR7/Galpha15, GCaMP6s calcium fluorescence; in the data active = activation above about 40%;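 note: 0% = vehicle and 100% = reference agonist at the receptor; some compounds past the cut are filed as inactive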
NPYLR7 ag max-min: also measured in NPYLR7 ag; calls as there; activation, %; measured here: Max-Min RFU normalised activation; some inactives read as strong as hits;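 span of the calcium signal over five minutes; 0% = vehicle and 100% = native peptide agonist; compound fluorescence can raise it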
* marks the source's active call; other numbers are inactive results; & = joins results of further samples.

structure,NPYLR7 ag max-min,NPYLR7 ag
CCCc1c(C)nn(-c2ccc(C(=O)NC3CCC(C)CC3)cc2)c1C (configuration not stated),-11.5,-6.6
O=c1oc2ccc(Cl)cc2cc1-c1csc(Nc2ccccc2)n1,9.3,9.5
CCC(C)N(Cc1ccc(OS(=O)(=O)CC)cc1)C(=O)Nc1ccc(F)c(Cl)c1 (configuration not stated),-2.7,-6.6
O=C(CCc1ccco1)N1CCN(Cc2ccc(-c3noc(-c4cccs4)n3)cc2)CC1,13.7,5.2
CCOC(=O)C1(C)CCCN1C(=O)c1ccc(OC)cc1OC (configuration not stated),-5.5,-3.8
C/C=C/c1cnc(-c2cccnc2)nc1C1CCN(C(=O)c2ccc(Cl)cc2)CC1,11.1,9.0
COCCOC(=O)C1=C(C)NC2=C(C(=O)CCC2)C1c1ccc(C(=O)OC)cc1 (configuration not stated),-10.1,-3.6
Cc1sc2nc(SC(C)C(=O)NCC3CCCO3)n(CC(C)C)c(=O)c2c1C (configuration not stated),0.0,4.7
C=c1cc(C)n(CC(=O)Nc2cc(C)ccc2OC)c(=O)c1=C1N=C(c2ccc(C)cc2)NO1,-14.5,-9.8
COc1ccc2cc(C(N)=O)c(=Nc3ccc(C(N)=O)cc3)oc2c1,-9.5,-4.9
CCN1CCOC(CCNS(=O)(=O)c2cnn(CC)c2)C1 (configuration not stated),-4.7,-5.2
CCN(C)c1cc(Oc2cccc(Cl)c2)ncn1,6.5,2.4
CN(C(=O)c1onc2ccccc12)C1Cc2ccccc2C1,17.3,26.1
CCCCC(CC)CNP1(=O)C=C(c2ccccc2)SC(c2ccccc2)=C1 (configuration not stated),7.6,3.5
CC(=O)NCCn1ncc2c(=O)n(Cc3cccc([N+](=O)[O-])c3)cnc21,-8.7,-4.0

Of the compounds above, 2 contain a thiophene ring, fused or not.
structure,NPYLR7 ag max-min,NPYLR7 ag
O=C(CCc1ccco1)N1CCN(Cc2ccc(-c3noc(-c4cccs4)n3)cc2)CC1,13.7,5.2
Cc1sc2nc(SC(C)C(=O)NCC3CCCO3)n(CC(C)C)c(=O)c2c1C (configuration not stated),0.0,4.7

At a glance, seven of the compounds above:
structure,NPYLR7 ag max-min,NPYLR7 ag
C=c1cc(C)n(CC(=O)Nc2cc(C)ccc2OC)c(=O)c1=C1N=C(c2ccc(C)cc2)NO1,-14.5,-9.8
COc1ccc2cc(C(N)=O)c(=Nc3ccc(C(N)=O)cc3)oc2c1,-9.5,-4.9
CCN1CCOC(CCNS(=O)(=O)c2cnn(CC)c2)C1 (configuration not stated),-4.7,-5.2
CCN(C)c1cc(Oc2cccc(Cl)c2)ncn1,6.5,2.4
CN(C(=O)c1onc2ccccc12)C1Cc2ccccc2C1,17.3,26.1
CCCCC(CC)CNP1(=O)C=C(c2ccccc2)SC(c2ccccc2)=C1 (configuration not stated),7.6,3.5
CC(=O)NCCn1ncc2c(=O)n(Cc3cccc([N+](=O)[O-])c3)cnc21,-8.7,-4.0

Additional entries
structure,NPYLR7 ag max-min,NPYLR7 ag
CCOCCCN(CC(=O)N1CCc2sccc2C1c1ccc(Cl)cc1)C(=O)N(C)C (configuration not stated),18.5,12.4
CCOC(=O)c1cccc(NC(=O)Cn2cccc(-c3nc(-c4ccc(C)cc4)no3)c2=O)c1,-2.5,0.7
COc1ccc(C(NC(=O)CN2CCN(Cc3cc(C)on3)CC2)C(C)C)cc1 (configuration not stated),-8.9,-6.9
COc1ccc(/C=N\Nc2nc(-c3ccc4c(c3)OCCO4)cs2)cc1OC,-0.2,-1.4
CCc1nc(C)nc(N2CCN(C(C)=O)CC2)c1Cc1ccccc1F,16.5,16.6
CNS(=O)(=O)c1cc(S(=O)(=O)NC)c2cccc3c2c1NC3=O,9.9,9.2
Cc1c(NC(=O)C2CCC2)cccc1-c1nc2cc(Cl)ccc2o1,13.8,8.8
Cc1ccc(S(=O)(=O)NCCc2nnc3ccc(SCc4cccc(C)c4)nn23)cc1,-0.8,8.3
O=C(NCCc1ccccn1)c1cc(-c2ccccc2F)nc2cc(-c3ccccc3)nn12,14.4,1.9
COc1ccccc1C(=O)N1CCC1(C)C(=O)NC(C)C (configuration not stated),-7.1,-6.4
CCOC(=O)CN1C(=O)O[C@H]2CO[C@@H]3CC[C@@H]1[C@@H]2C3,19.7,23.4
CCN=c1scc(-c2ccc3c(c2)CCC(=O)N3)n1CC,0.2,-1.1
O=C1C=CC(=O)N1c1ccc(F)cc1F,1.8,2.2
COc1cccc(CNC(=O)CCC2CCCN(c3ncccn3)C2)c1 (configuration not stated),7.9,17.2
O=C(Nc1nccs1)c1cccc(NC(=O)c2cccs2)c1,-8.1,-8.3
Cc1nn(C(=O)COc2ccccc2[N+](=O)[O-])c(C)c1S(=O)(=O)N1CCc2ccccc2C1,0.7,-5.5
Cc1csc(NC(=O)c2ccccc2SCc2ccco2)n1,-2.3,2.8
CC(=O)Nc1ccc2nc(CN3C[C@H](O)[C@@H](N4CCN(C)CC4)C3)ccc2c1,2.5,4.6
CCn1c(=O)c2c(nc3n(-c4ccc(F)cc4)c(C)cn23)n(C)c1=O,11.4,20.0
COc1ccccc1-c1ncc(OCC(F)(F)F)nc1NC(=O)C(C)C,-6.6,0.5
Cc1cc(C=O)c(C)n1-c1ccc(F)cc1F,-1.7,-3.2
CC(=O)Nc1cccc2c1c(Sc1ccc(Cl)cc1)c(C)n2CC(=O)O,-3.5,-3.1
CCOC(=O)c1cc(-c2cccc(NC(=O)c3cccc(C#N)c3)c2)n(-c2ccccn2)n1,-2.0,3.1
CCOc1ccc(-c2ccc(=O)n(CCNC(=O)c3ccccc3)n2)cc1,-4.1,-2.8
Cc1cc(C)c(NC(=O)CNC(=O)CCl)c(C)c1,-10.6,-7.8
Fc1ccc(Nc2nc(-c3ccccc3Cl)nc3ccccc23)cc1,7.4,-2.6
CCC(CC)NC(=O)C1CCN(C2=NS(=O)(=O)c3ccccc32)CC1,-10.1,-7.6
CC1CN(c2ccc(/C=C(\C#N)c3nc4ccccc4s3)o2)CC(C)O1 (configuration not stated),11.7,5.2
CC(C)(C)NC(=O)NC(=O)Cn1cc(C(F)(F)F)cc(Cl)c1=O,5.7,5.2
COc1ccc(-n2c(=O)[nH]c3c(C(N)=O)nc(-c4cccc(O)c4)nc32)c(OC)c1,-5.3,-3.3
CC1(C(=O)NS(=O)(=O)c2ccc(C#N)cc2)CCN1C(=O)Cc1cccs1 (configuration not stated),13.3,12.4
Cc1ccc(F)cc1NC(=O)C(C)Oc1ccc(C#N)cc1 (configuration not stated),17.6,11.7
CS(=O)(=O)c1ccc(Nc2nc(C(=O)NCc3ccccn3)cs2)cc1,5.6,11.1
Cc1ccc(CCn2cc(C3CC=CCC3)nn2)cc1C (configuration not stated),6.4,5.8
O=C(NC(C(=O)N1CCCC1)C1CCN(C(=O)Cc2ccccc2)CC1)C1CC1 (configuration not stated),13.8,9.8
Cn1cc(C(=O)N=Nc2c(O)[nH]c3ccccc23)ccc1=O,-10.2,-0.6
COc1ccc2nc(NNC(=O)c3ccc(S(=O)(=O)N4CCc5ccccc5C4)cc3)sc2c1,-4.6,-0.9
CCCC1CC(=O)C2C(=Nc3nnnn3C2c2ccc(Cl)cc2)C1 (configuration not stated),-4.2&1.0,0.9&4.2
CCCCCNC(=O)N1CC2C3CCC(C3)C21 (configuration not stated),0.8,1.5
CCOC(=O)CNC(=O)CSc1ncnc2c1nnn2-c1ccc(OC)cc1,16.9,16.3
COc1cccc(-c2cccc(-c3ccc(NC(=O)c4ccc([N+](=O)[O-])o4)cc3)n2)c1,5.7,1.6
CCOC(=O)c1c(C)nn(-c2ccc(C(=O)NCCSCc3ccccc3)cc2)c1C,-12.1,-8.3
N#Cc1ccc(Cn2cnc([N+](=O)[O-])c2)cc1,-2.7,-3.6
CCc1c(C)nc(-n2nc(C)cc2C)n(CC(N)=O)c1=O,1.2,1.9
O=S(=O)(/C=C/c1ccccc1)NCCOc1ccc2nnc(-c3cccc(F)c3)n2n1,-5.3,-4.3
O=C(c1ccc2c(c1)OCO2)N1CCC2(CC1)OCC(C(=O)N1CCCC1)N2C(=O)c1ccccc1 (configuration not stated),15.9,8.2
Cc1nc2n(n1)C(=O)C(C(c1ccccc1)N1CCCC(C)C1)S2 (configuration not stated),-3.0,-0.5
CC(C)n1cc(C(=O)NCc2ccccc2)c(=O)c(C(=O)N2CCN(C/C=C/c3ccccc3)CC2)c1,-4.1,1.6
Cc1ccc(S(=O)(=O)Nc2cc(C(C)C)no2)s1,5.6,7.2&3.2
Cc1nn(-c2ccccc2)c(Cl)c1C(=O)OC(C)c1ccn[nH]1 (configuration not stated),7.1,0.8
COc1ccc(OC)c(C=CC(=O)N2CCCC2c2ccc(OC)cc2OC)c1 (configuration not stated),-0.7,1.1
COc1ccc(NC2=NS(=O)(=O)c3ccccc32)cc1,14.7&3.7,2.4&4.1
O=C(CCc1cc(F)ccc1F)N1CCCC1c1ccc[nH]1 (configuration not stated),0.0,3.0
CCCc1cc(=O)n(CC(=O)Nc2ccncc2)cn1,8.0,16.0
CC(C)N(CCSc1ccc(NC(=O)c2ccco2)nn1)C(C)C,-1.6,6.1
CCCCCc1ccc(C(=O)Nc2ccc3[nH]cc(CCN4CCN(c5ccc(OC)cc5)CC4)c3c2)cc1,0.2,11.8
COc1ccc(-c2noc(CN3CCC(c4nc5ccccc5o4)CC3)n2)cc1,-3.8,2.7
CCN(CC)S(=O)(=O)c1cccc(NC(=O)CSC(C)(C)C)c1,1.0,1.3
CC(N)CCc1cccn1C (configuration not stated),-5.1,0.2
COc1ccc(-n2nnc(C(=O)OCc3nc(-c4ccccc4)oc3C)c2C)cc1,19.3,23.2

Other compounds follow.
structure,NPYLR7 ag max-min,NPYLR7 ag
Fc1cccc(Cl)c1C(CNCc1cccs1)N1CCCC1 (configuration not stated),-1.1,0.1
O=S(=O)(Nc1cc(F)ccc1F)c1ccc(Cl)cc1F,16.8,0.5
Cc1ccc(S(=O)(=O)c2nc(S(=O)CCO)sc2Cl)cc1 (configuration not stated),4.7,11.9
COc1cccc(COC2CCCN(C(=O)CCc3ccccc3)C2)c1 (configuration not stated),3.5,-2.2
Cc1cccc(C(=O)N2CCC(C(Cc3ccccc3)N(C)C(=O)c3ccsc3)CC2)c1C (configuration not stated),-12.2,-7.2
CN=c1scc(-c2ccc(OC(F)F)cc2)n1N=Cc1cc2c(cc1[N+](=O)[O-])OCO2,-14.4,-2.5
Cc1c(-c2ccccc2)sc(N)c1C(=O)N1CCOCC1,3.4,7.4
CCOc1cc(C2NC(=S)NC(C)=C2C(=O)OC(C)C)ccc1OCc1ccccc1 (configuration not stated),2.5,3.7
CC(C)NS(=O)(=O)c1cc(NC2CCCCC2)cc(C(=O)NC2Cc3ccccc3C2)c1,10.1,17.9
c1ccc(COC2CCCN(Cc3ccncc3)C2)nc1 (configuration not stated),-4.8,-3.9
Cc1cc(C)cc(-n2cc[nH]c2=S)c1,21.1,15.1
COc1ccc(F)c(-c2nc(COc3ccc(-n4cncn4)cc3)c(C)o2)c1,1.4,1.4
COCCNC(=O)c1coc(CN(CCc2c[nH]c3ccccc23)Cc2sccc2C)n1,10.6,12.5
CC(C)C[C@H](N)C(=O)N[C@@H](C)C(=O)O,-10.3,-8.5
CSc1nc(O)c(C(c2ccc(C)cc2)c2c(O)nc(SC)n(C)c2=O)c(=O)n1C,37.4,-5.6
N#Cc1cccc(C=C2N=C(c3ccccc3Br)OC2=O)c1,5.4,5.2
COc1ccc(-c2cc(C(=O)NC(Cc3ccccc3)c3ccccc3)n(-c3cccc(Cl)c3)n2)c(OC)c1 (configuration not stated),23.0,14.0
CCN(C(=S)NC(=O)C1CCCC1)C1CCCCC1,1.0,2.3
CCc1ccc(-n2c(C(CC)N(Cc3ccco3)C(=O)c3ccc(Br)cc3)nc3ccccc3c2=O)cc1 (configuration not stated),-8.7,0.2
CC1CN(CCc2ccccc2)c2nc3c(c(=O)n(CCc4ccccc4)c(=O)n3C)n2C1 (configuration not stated),5.4,5.6
COc1cc(Cn2nc(C)c3cnn(-c4ccccc4)c3c2=O)cc(OC)c1,7.7,11.6
CC1=Nc2ccccc2NC(=O)C1Sc1nc2ccccc2s1 (configuration not stated),-15.3,-12.0
CC1CN(Cc2ccccc2CNC(=O)c2ccccn2)CC(C)O1 (configuration not stated),3.7,4.9
CCc1ccc(S(=O)(=O)NCCCn2nc(-c3ccccc3)ccc2=O)s1,-3.6,-3.2
CN1CCc2c(sc3c2C(=O)NC(c2cc(Br)ccc2O)N3)C1 (configuration not stated),9.8,21.6
CCOc1ccc(-c2ccc(=O)n(CCNC(=O)c3cccnc3)n2)cc1,0.3,-0.1
Cc1ccc2[nH]c3c(c2c1)CCOC31CCN(C(=O)NCc2ccc(F)cc2)CC1,14.6,14.8
CCc1nccn1CCC(=O)N1CC[C@@H](c2sccc2C)[C@H](O)C1,-4.8,0.7
O=C(CN1C(=O)C2C3C=CC(CC3)C2C1=O)Nc1nccs1 (configuration not stated),-1.5,0.1
CC(=O)N1CCN(C(=O)C=Cc2cn(Cc3ccccc3)nc2-c2ccccc2)CC1,-0.2,-0.2
Cc1ccc(C2CCCN2C(=O)C(=O)Nc2cnccc2C)o1 (configuration not stated),-1.8,0.3
Cc1noc(C)c1CNC(C(=O)NC(C)C)c1ccccc1 (configuration not stated),8.0,10.7
COCC(=O)N1C2CCC3(CC2)OC(=O)N(Cc2ccccc2)CC13 (configuration not stated),31.8,24.1
CC(C)(C)n1cccc(/C=N\NC(N)=S)c1=S,-8.1,-6.3

Only part of the results is shown; the hit share may differ from the screen's.
